Source: PubChem BioAssay (Broad Institute)
RanGTP-Imp inh = disruptors of Ran-importin-beta complex formation – biochemical, FRET, CFP-Ran, YFP-importin-beta, homogeneous, primary screen; cell-free CFP-Ran/YFP-importin-beta FRET ratio; inhibition, % (no concentration beside the values); hit rate 1.1% among 300,000;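 active = most replicates above 15%; inconclusive = exactly half above 15%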;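 note: 0% = DMSO wells and 100% = Ran loaded with GDP instead of GTP; wells of about 40 µL received 100 nL stock; the first replicate is given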
MLL AF4-AF9 inh = MLL-AF4/AF9 protein interaction inhibition; AID 651704; hit rate 0.47% among 350,000; AlphaScreen, biotin-AF4 peptide binding to FLAG-AF9; inhibition, % at 10 µM;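 active = every replicate reaching a set inhibition limit, whatever the replicate mean, cut at about 25% in these data; inconclusive = mean inhibition reaches that limit but some replicates miss it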;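 note: 0% = plate neutral control median and 100% = total signal loss; the record names both 10 and 1 µM as test concentration; the first replicate is given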
Target sequence (P42568 whole entry, looked up): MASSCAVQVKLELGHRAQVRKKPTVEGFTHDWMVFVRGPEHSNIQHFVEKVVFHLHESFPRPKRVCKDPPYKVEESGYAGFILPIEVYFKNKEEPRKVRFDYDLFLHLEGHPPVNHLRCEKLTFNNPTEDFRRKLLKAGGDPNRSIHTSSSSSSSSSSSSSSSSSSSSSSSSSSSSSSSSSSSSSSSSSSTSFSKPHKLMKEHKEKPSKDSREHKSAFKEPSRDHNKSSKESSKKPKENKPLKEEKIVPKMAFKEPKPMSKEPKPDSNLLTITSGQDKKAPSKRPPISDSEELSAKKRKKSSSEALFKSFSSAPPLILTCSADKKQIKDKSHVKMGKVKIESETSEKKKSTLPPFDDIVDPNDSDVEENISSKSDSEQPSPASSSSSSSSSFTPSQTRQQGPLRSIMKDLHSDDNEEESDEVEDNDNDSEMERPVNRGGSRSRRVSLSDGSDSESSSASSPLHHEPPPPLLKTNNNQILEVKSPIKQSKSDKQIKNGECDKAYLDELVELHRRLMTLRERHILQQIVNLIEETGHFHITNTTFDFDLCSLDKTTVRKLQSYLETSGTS
Beta apoptosis = blocks beta cell apoptosis. hit rate 0.8% among 300,000. protection from apoptosis, % (no concentration beside the values). INS-1E cytokine-induced death, ATP luminescence, 48 h; percent of positive-control rescue, neutral wells zero;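 active = all replicates at 75% or more, or half of them and the mean; inconclusive = half reach 75% but not the mean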;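 note: 0% = cytokine-treated negative control wells and 100% = positive control rescue; higher means more ATP so stronger rescue from cytokine killing; wells of about 40 µL received 100 nL stock; the first replicate is given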
FGF22 binding = binders of recombinant human FGF22 by thermal shift. SYPRO orange fluorescence; percent of sucrose octasulfate shift, DMSO zero. calls only at 9.99 µM. hit rate 1.5% among 340,000. AID 651658;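 active = melting point raised past a set limit in the mean and every replicate; inconclusive = no clear call; three in four hits are not shown here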
Target sequence (Q9HCT0 whole entry, looked up): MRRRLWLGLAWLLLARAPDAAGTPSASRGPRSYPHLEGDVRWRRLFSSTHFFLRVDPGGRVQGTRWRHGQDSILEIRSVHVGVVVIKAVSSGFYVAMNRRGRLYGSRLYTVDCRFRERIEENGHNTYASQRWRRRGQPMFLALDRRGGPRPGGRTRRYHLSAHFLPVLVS
ALR H2O2 inh = inhibitors of human sulfhydryl oxidase ALR | P55789 | purified ALR, DTT oxidation, H2O2 HRP-luminol luminescence | inhibition, % (concentration not given with the values) | hit rate 3.8% among 290,000 | AID 485317;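 active = mean and each replicate at 75% or more; inconclusive = only one of the two met; inactive = neither met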;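 note: stock transfer was 7.5 nL into about 7.5 µL; 0% = neutral wells and 100% = wells with inactivated enzyme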
Target sequence (P55789 whole entry, looked up): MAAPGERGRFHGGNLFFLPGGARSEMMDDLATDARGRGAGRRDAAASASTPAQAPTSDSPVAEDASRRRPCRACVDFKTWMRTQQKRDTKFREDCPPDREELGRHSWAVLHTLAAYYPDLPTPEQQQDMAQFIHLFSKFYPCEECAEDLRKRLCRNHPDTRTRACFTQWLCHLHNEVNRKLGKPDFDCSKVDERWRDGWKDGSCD
rRNA inh HTS = inhibitors of bacterial rRNA selective over humanized ribosomes; hit rate 1.6% among 350,000; E. coli WT GFP vs humanized-ribosome RFP mutants, fluorescence, 24 h; hits give low values; DMSO median 0, no signal -100; GFP signal change (wild-type ribosome), % (no concentration beside the values);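 active = significant combined selectivity score with lowered wild-type GFP, culture density cut under 30%, mutant RFP and density less affected; inactive = any of these conditions unmet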; note: one replicate is shown; some compounds called inactive have numbers as strong as hits
Calb FLC = C. albicans growth modulation with fluconazole. C. albicans CaCi-2 (fluconazole-resistant clinical isolate) + fluconazole, Alamar Blue growth, 48 h. growth inhibition, % (concentration not given with the values). hit rate 0.57% among 300,000;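 active = most replicates above 75%; inconclusive = exactly half above 75%; inactive = most below 75%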;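 note: all wells also contain fluconazole at 8 µg/ml as a sub-toxic cotreatment; 0% = median of DMSO wells and 100% = median of geldanamycin control wells; wells of about 8 µL received 7.5 nL stock; the first replicate is given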
T cruzi inh = T. cruzi replication inhibition. T. cruzi beta-gal in NIH3T3, luminescence, 90 h. inhibition, % (concentration not given with the values). hit rate 1.4% among 300,000;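 active = mean inhibition across valid replicates above about 55%, limit read from the data; inconclusive = mean below that limit but half or more replicates reach it; inactive = mean below it, under half of replicates reach it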;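 note: signal also drops with host cell toxicity which is not excluded here; 0% = plate median of DMSO wells and 100% = zero luminescence signal; higher percent means less beta-gal luminescence so fewer parasites; stock transfer was 50 nL into about 50 µL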
rRNA inh HTS OD600 = second read-out of rRNA inh HTS, no call of its own (marks repeat the call); OD600 change, %; measured here: OD600 growth;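 optical density of the mix in the first replicate; 0 = DMSO median and -100 = no signal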
rRNA inh HTS RFP = further read-out of rRNA inh HTS, marked with its call; RFP signal change, %; measured here: RFP humanized mutant strains;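 first replicate; 0 = DMSO median and -100 = no signal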
The depositor's hits bear a star; i = inactive; ? = inconclusive; nt = no result given; & = joins results of further samples. Not all compounds are listed; count on the stated rates, not on these rows.

SMILES	RanGTP-Imp inh	MLL AF4-AF9 inh	Beta apoptosis	FGF22 binding	ALR H2O2 inh	rRNA inh HTS	rRNA inh HTS OD600	rRNA inh HTS RFP	Calb FLC	T cruzi inh
CCCCCC(=O)N[C@@H](c1ccccc1)[C@@H](O)C(=O)O[C@H]1C[C@@]2(O)[C@@H](OC(=O)c3ccccc3)C3[C@](C)(C(=O)[C@H](OC(C)=O)C(=C1C)C2(C)C)[C@@H](O)C[C@H]1OC[C@@]31OC(C)=O (stereo partly drawn)	-1.8	2.7	15	i	nt	3	12	-8.3	1	50
Brc1ccc(-c2nnc(-c3ccc4c(c3)OCO4)o2)o1	3.5	nt	-6	nt	0	nt	nt	nt	3	nt
Cc1cccc(CC(=O)NCCN2CCCCC2)c1	0.4	5.8	-3	i	-17	5	11	1.4	-7	-7
CC(C)(CNC(=O)c1ccccc1F)CNC(=O)c1ccccc1F	-0.2	-0.8	nt	i	-9	15	-2	1.5	5	9
Cc1ccc2c(c1)N(CC(=O)NC1CCCCCC1)C(=O)c1cccnc1O2	-3.1	-5.1	6	i	8	-10	-24	1.9	-1	-8
Cc1ccc(S(=O)(=O)C2(C(=O)NCc3ccccc3Cl)CC2)cc1	3.4	-1.0	0	nt	-1	-22	-18	-7.2	7	4
O=C(CCSCCC(=O)N1CCCC1)N1CCCC1	-1.1	nt	-3	nt	-2	nt	nt	nt	-3	-3
O=C(COC(=O)C12CC3CC(CC(Br)(C3)C1)C2)Nc1c(F)cccc1F	nt	0.0	3	i	26	-27*	-11*	6.6*	nt	nt
CCc1nnc(NC(=O)CN2CC(C)OC(C)C2)s1 (stereo not drawn)	0.1	-7.2	-2	i	-12	7	11	-2.4	-1	0
Cc1nn(C(=O)c2ccc3c(c2)OCO3)c(N)c1-c1ccccc1	-1.4	8.8	-8	i	6	4	-38	-6.3	-10	-7
Cc1ccc2nc(-c3ccc(SCC(=O)Nc4ccc5c(c4)OCCO5)nc3)[nH]c2c1	-3.3	nt	12	nt	35	nt	nt	nt	-5	-8
CC(=O)c1ccccc1OC(=O)c1ccco1	1.5	nt	-2	nt	-1	nt	nt	nt	-36	20
Cn1c(CCNS(=O)(=O)c2ccccc2)nc2cc([N+](=O)[O-])ccc21	5.1	0.4	-3	i	-8	-6	7	-1.6	-2	6
O=C1COc2ccc(S(=O)(=O)Nc3cccc(Cl)c3)cc2N1	1.7	-0.2	-5	i	9	-1	-17	2.3	-13	9
Cc1ccc(NC(=O)CS(=O)CC(=O)N(CC(=O)NC(C)(C)C)c2cccc(C)c2C)cc1 (stereo not drawn)	?	-7.2	4	i	0	-5	-8	3.0	-4	6
CN1CCN(CCC(=O)Nc2ccc(OCc3ccccc3)cc2)CC1	2.1	nt	0	nt	-18	nt	nt	nt	-9	22
CC(=O)NCCN=Cc1sc2ccccc2c1O	31*	nt	-26	nt	30	nt	nt	nt	8	4
CC(=O)c1c(C)[nH]c(C(=O)CSc2nnc3ccccn23)c1C	-1.8	nt	0	nt	-8	nt	nt	nt	9	7
CC(=O)c1cccc(NC(=O)CSc2nnc(-c3ccncc3)o2)c1	nt	-0.4	1	i	-3	5	14	-1.4	nt	nt
COC(=O)[C@@H]1Cc2c([nH]c3ccccc23)C(C)N1C(=O)c1ccccc1 (stereo partly drawn)	3.2	2.5	-5	i	2	-5	-4	7.3	3	10
CCOC(=O)c1c(-c2cccs2)csc1NC(=O)C(C)(C)C	-3.2	nt	11	nt	-7	nt	nt	nt	-3	19
CC(C)[C@H](N)C(=O)NC[C@H]1CC[C@H](C(=O)N[C@@H](Cc2ccccc2)C(=O)O)CC1	0.9	1.4	-1	i	-4	6	16	-3.7	-5	1
O=C(CSc1nc2c(sc3ccccc32)c(=O)n1Cc1ccccc1)NCC1CCCO1 (stereo not drawn)	-3.9	nt	11	nt	-1	nt	nt	nt	?	0
CCOC(=O)C1=NN(c2cccc(Cl)c2)C2=NC(C)=C(C(=O)OC)C(c3cccs3)N12 (stereo not drawn)	?	nt	3	nt	-7	nt	nt	nt	-9	10
COc1ccc(C2OC(=O)Cc3cc(OC)c(OC)cc32)cc1 (stereo not drawn)	-3.9	0.2	-2	i	-7	2	-7	1.4	7	12

An excerpt of these results, field by field:
> CCc1nnc(NC(=O)CN2CC(C)OC(C)C2)s1 (stereo not drawn)
  RanGTP-Imp inh = 0.1 | MLL AF4-AF9 inh = -7.2 | Beta apoptosis = -2 | FGF22 binding = i | ALR H2O2 inh = -12 | rRNA inh HTS = 7 | rRNA inh HTS OD600 = 11 | rRNA inh HTS RFP = -2.4 | Calb FLC = -1 | T cruzi inh = 0

> CCOC(=O)C1=NN(c2cccc(Cl)c2)C2=NC(C)=C(C(=O)OC)C(c3cccs3)N12 (stereo not drawn)
  RanGTP-Imp inh = ? | MLL AF4-AF9 inh = nt | Beta apoptosis = 3 | FGF22 binding = nt | ALR H2O2 inh = -7 | rRNA inh HTS = nt | rRNA inh HTS OD600 = nt | rRNA inh HTS RFP = nt | Calb FLC = -9 | T cruzi inh = 10

> Cc1ccc2c(c1)N(CC(=O)NC1CCCCCC1)C(=O)c1cccnc1O2
  RanGTP-Imp inh = -3.1 | MLL AF4-AF9 inh = -5.1 | Beta apoptosis = 6 | FGF22 binding = i | ALR H2O2 inh = 8 | rRNA inh HTS = -10 | rRNA inh HTS OD600 = -24 | rRNA inh HTS RFP = 1.9 | Calb FLC = -1 | T cruzi inh = -8

> COC(=O)[C@@H]1Cc2c([nH]c3ccccc23)C(C)N1C(=O)c1ccccc1 (stereo partly drawn)
  RanGTP-Imp inh = 3.2 | MLL AF4-AF9 inh = 2.5 | Beta apoptosis = -5 | FGF22 binding = i | ALR H2O2 inh = 2 | rRNA inh HTS = -5 | rRNA inh HTS OD600 = -4 | rRNA inh HTS RFP = 7.3 | Calb FLC = 3 | T cruzi inh = 10

Additional results follow.
SMILES	RanGTP-Imp inh	MLL AF4-AF9 inh	Beta apoptosis	FGF22 binding	ALR H2O2 inh	rRNA inh HTS	rRNA inh HTS OD600	rRNA inh HTS RFP	Calb FLC	T cruzi inh
CCC(C)c1ccc(OCCn2cc(/C=N/NC(=O)CSc3nnc(C)s3)c3ccccc32)cc1 (stereo not drawn)	-3.0	nt	37	nt	-8	nt	nt	nt	-27	20
O=S(=O)(Nc1ccccc1)c1ccc(F)cc1	-0.1	nt	-9	nt	-15	nt	nt	nt	13	-6
CCc1ccc(NC(=O)C(C)Nc2ccc(S(=O)(=O)NC(C)=O)cc2)cc1 (stereo not drawn)	3.3	nt	-4	nt	-12	nt	nt	nt	-9	-13
O=C(O)c1ccccc1C(=O)N1CCN(Cc2ccc3c(c2)OCO3)CC1	-1.3	0.9	nt	i	nt	6	7	-0.9	-4	-5
Cc1cccc(N(Cc2ccccc2)C(=O)C2CCN(C(=O)c3ccccc3C)CC2)c1	nt	6.1	-2	i	1	nt	nt	nt	nt	nt
C=CCOc1cccc(/C=N/NC(=O)CC(=O)NC2CCCCC2)c1	-1.6	-1.4	nt	i	-14	nt	nt	nt	-4	4
O=S(=O)(NC1CCN(Cc2ccccc2)CC1)c1ccc(Cl)cc1	1.0	3.4	nt	i	nt	16	9	1.4	-1	35
C=C1C2(C(=O)Nc3ccc(SC(F)F)cc3)CCC(C2)C1(C)C (stereo not drawn)	1.7	-1.5	2	i	nt	9	-7	-3.4	-13	7
CCO[C@@H]1OC(C(N)=O)=C[C@H](C2CCCCC2)[C@H]1CCCO	-8.0	0.5	-3	i	6	-8	-28	6.9	4	-2
O=C(NCCc1nc2ccccc2[nH]1)/C(=C/c1ccc(F)cc1)NC(=O)c1ccco1	3.6	-0.7	-8	i	-2	5	7	-0.7	-5	0
CCCN(CCC)CCNC(=O)c1cc2c(-c3ccc(Cl)cc3)nn(C)c2s1	-3.3	10	53	i	-10	-14	-26	4.7	-3	53
O=S(=O)(c1ccc(NC2CCCc3ccccc32)nc1)N1CCOCC1 (stereo not drawn)	?	nt	4	nt	-24	nt	nt	nt	-9	3
O=C(O)c1ccccc1-c1nnc2c(Cl)cc(C(F)(F)F)cn12	-1.5	0.3	-1	i	nt	4	5	3.2	0	-22
CCOC(=O)Cc1csc(NC(=O)CSC2=NCCS2)n1	5.1	-5.3	nt	i	99*	-4	7	-2.0	-7	-12
Cc1noc(C)c1COc1ccc(C(=O)OCC(=O)N2c3ccccc3NC(=O)C2(C)C)cc1	5.4	nt	5	nt	-4	nt	nt	nt	0	0
COc1cccc(CNC(=O)C2CCN(S(=O)(=O)c3ccc4c(c3)CCC(=O)N4)CC2)c1	0.1	4.3	-7	i	5	5	-1	-1.5	-2	0
CCO[C@H]1OC(C(=O)N2CCOCC2)=C[C@@H](c2ccc(C(F)(F)F)cc2)[C@@H]1CCCO	1.7	-1.3	-5	i	56	3	8	19	-20	-1
COc1ccc2nc(SCC(=O)NC3CCCCC3C)[nH]c2c1 (stereo not drawn)	nt	1.8	4	i	nt	-7	-12	0.8	nt	nt
CCN(c1ccc(C)cc1C)S(=O)(=O)c1nnc(NC(=O)C(C)C)s1	-2.8	-1.4	-11	i	-6	-5	4	3.5	5	-14
CCCn1c(=O)n(CC(=O)NCC2CCCO2)c(=O)c2c3c(sc21)COC(C)(C)C3 (stereo not drawn)	-0.4	-1.4	-6	i	1	19	8	2.8	2	-3
Cc1ccc(NC(=O)c2ccc3c(=O)n4c(nc3c2)CCCCC4)nc1	1.3	4.8	-3	i	1	-13	-26	-0.6	6	2
CCOc1ncccc1C(=O)NCC(c1ccccc1)N(C)C (stereo not drawn)	?	-27	-30	i	0	8	17	0.6	-14	-1
CCC(=O)c1ccc(OCC(=O)Nc2ccc3nc(C)sc3c2)cc1	3.1	-0.7	1	i	nt	-2	0	-3.0	29	-5
CCc1ccccc1NC(=S)NNC(=O)c1ccccc1Cl	1.7	0.3	2	nt	16	-3	-15	-1.2	103*	6
COc1ccc(N(C(=O)/C=C/C(=O)Nc2cc(C)on2)C(C(=O)NC2CCCC2)c2ccccc2C)cc1 (stereo not drawn)	-0.6	6.9	-1	i	-10	-21	-33	1.9	19	-16
O=C(COc1ccccc1)NNc1nc2c(F)cccc2s1	?	-2.5	-4	i	-1	14	19	-0.7	-6	-11
C/C(=N/NC(=O)c1ccccn1)c1c[nH]c2ccccc12	-0.7	1.1	2	i	-8	-7	-5	-4.1	0	9
c1cn2c(NC3CCCCC3)c(-c3ccc(SC4CCCCC4)cc3)nc2cn1	5.3	-19&-9.7	0	i	nt	8	-2	33	8	48
COc1ccc(S(=O)(=O)Cc2ccc(C(=O)N3CCN(C(=O)c4ccco4)CC3)o2)cc1	4.8	-4.2	-15	i	-69	-4	1	-8.1	-2	-1
